# Screening data deposited in PubChem by National Center for Advancing Translational Sciences (NCATS).
# VACV Venus inh = vaccinia inhibition (Venus reporter); 330,000 tested, 0.46% active; Potency, µM (doses to about 36.5 µM), for the others: at the top dose activity change, negative = inhibition, hits mostly inhibitors; Vaccinia virus Venus reporter expression, fluorescence; active means well fitted inhibition curve with a large enough effect; inconclusive means small, poorly fitted or top-dose-only effect; inactive means no such curve, though single readings can be large or run the other way; tested in A549 cells; further: nearly all actives have a fitted effect of over 30% in size; inactives centre near -10
# VACV mCherry inh = inhibitors of vaccinia virus infection (mCherry reporter signal). Vaccinia virus mCherry reporter infection, fluorescence; about a quarter of the inactives have no number. Potency, µM (doses to about 36.5 µM), inactives show at the highest dose activity change, negative = inhibition, hits mostly inhibitors. 310,000 tested, 0.63% active; active = well fitted inhibition curve with a large enough effect; inconclusive = small, poorly fitted or top-dose-only effect; inactive = no such curve, though single readings can be large or run the other way; tested in A549 cells; further: nearly all actives have a fitted effect of over 35% in size; inactives centre near -10
# * marks the source's active call; other numbers are inactive results; i = inactive; ? = inconclusive; / = not tested or not shown; & = joins results of further samples; [ ] = remark or other dose. On the % scale 0 is the no-effect control and ±100 the full control effect; potency means the concentration at half of the fitted maximal effect.
# Preview, 7 compounds:
# Values run as follows: VACV mCherry inh | VACV Venus inh
> CCOc1ccc(Oc2ccc(NS(=O)(=O)c3ccc(CCC(=O)O)cc3)cc2)cc1
  i | -10%
> CCN(C[C@H]1N[C@@](CC)(C(=O)OC)[C@H]2C(=O)N(Cc3ccccc3)C(=O)[C@@H]12)C(=O)c1ccc(C(C)(C)C)cc1
  ? | ?
> Cc1ccc(-n2nc(C)c3c2NC(=O)CSC3c2ccc(O)cc2)cc1Cl (stereo not drawn)
  0% | -10%
> CSc1ccc(CCNC(=O)c2cc3cc4cc(C)ccc4nc3s2)cc1
  -10% | -8%
> CC(=O)Nc1ccc2c(O)cc(S(=O)(=O)O)cc2c1
  -19% | -2%
> CCOc1ccccc1-n1c(SCC(=O)N(C(C)C)C(C)C)nnc1-c1cccnc1
  -8% | -2%
> O=C(NNC(=O)c1cc(Cl)ccc1O)c1ccc(NS(=O)(=O)c2cccs2)cc1
  -13% | -12%

# All compounds of this part, previewed entries included:
# Values run as follows: VACV mCherry inh | VACV Venus inh
> CCOc1ccc(Oc2ccc(NS(=O)(=O)c3ccc(CCC(=O)O)cc3)cc2)cc1
  i | -10%
> CCN(C[C@H]1N[C@@](CC)(C(=O)OC)[C@H]2C(=O)N(Cc3ccccc3)C(=O)[C@@H]12)C(=O)c1ccc(C(C)(C)C)cc1
  ? | ?
> Cc1ccc(-n2nc(C)c3c2NC(=O)CSC3c2ccc(O)cc2)cc1Cl (stereo not drawn)
  0% | -10%
> CSc1ccc(CCNC(=O)c2cc3cc4cc(C)ccc4nc3s2)cc1
  -10% | -8%
> CC(=O)Nc1ccc2c(O)cc(S(=O)(=O)O)cc2c1
  -19% | -2%
> CCOc1ccccc1-n1c(SCC(=O)N(C(C)C)C(C)C)nnc1-c1cccnc1
  -8% | -2%
> O=C(NNC(=O)c1cc(Cl)ccc1O)c1ccc(NS(=O)(=O)c2cccs2)cc1
  -13% | -12%
> O=C(/C=C/c1cccc([N+](=O)[O-])c1)NCCc1ccc(F)cc1
  -21% | -14%
> Cc1ccc2c(CN3CCCCC3)cc(=O)oc2c1
  7% | -4%
> COc1ccc(Br)c(Cn2c(C)c(C(=O)NCc3ccccc3C(F)(F)F)sc2=O)c1
  i | -1%
> O=C(CNC(=O)c1ccco1)Nc1ccc(OC(F)F)cc1
  -15% | -18%
> CCCCC(=O)N(C)c1c(CC)nc2c(OCc3ccc(C#N)cc3)cccn12
  5% | -8%
> COc1cccc2c1cc1c(=O)n(CC(=O)N3CCCCC3)nc(C)n12
  i | -15%
> CCN(CC)C(=O)CSc1nc2nc(C)cc(C)c2c(=O)[nH]1
  -11% | -1%
> O=C(NCCCn1ccnc1)C1CCN(S(=O)(=O)c2ccc(F)cc2)CC1
  0% | -8%
> C=C1C(=O)C=C[C@]2(C)C[C@@H]3OC(=O)[C@](C)(O)[C@H]3C[C@@H]12
  ? | ?
> Cc1c(NC2=CC(=O)CCC2)c(=O)n(-c2ccccc2)n1C
  i | -7%
> CCCn1c(SC(C)C(=O)NCC2CCCO2)nc2sc3c(c2c1=O)CCC3 (stereo not drawn)
  -6% | -10%
> O=c1[nH]c(SCCOc2ccccc2F)nc2ccccc12
  -16% | -13%
> CC(C)NC(=O)CN(C(=O)CCC(=O)Nc1nccs1)c1ccc2c(c1)OCO2
  -6% | -3%

# Fetched by compound from the entries so far, 2 records:
# Values run as follows: VACV mCherry inh | VACV Venus inh
> CCN(C[C@H]1N[C@@](CC)(C(=O)OC)[C@H]2C(=O)N(Cc3ccccc3)C(=O)[C@@H]12)C(=O)c1ccc(C(C)(C)C)cc1
  ? | ?
> CCCCC(=O)N(C)c1c(CC)nc2c(OCc3ccc(C#N)cc3)cccn12
  5% | -8%

# (further entries)
# Values run as follows: VACV mCherry inh | VACV Venus inh
> Cc1n[nH]c(C)c1-c1nc2ccccc2[nH]1
  -20% | -11%
> Cc1ccc2c(C)nc(SC(C(=O)c3ccccc3)c3ccccc3)nc2c1 (stereo not drawn)
  i | -5%
> O=C(Oc1cc(OC(=O)c2ccccc2)c2c(c1)OC(c1ccc(OC(=O)c3ccccc3)c(OC(=O)c3ccccc3)c1)[C@@H](OC(=O)c1ccccc1)C2)c1ccccc1 (stereo partly drawn)
  i | -14%
> CC(C)=CC1C(C(=O)Nc2ccc(Br)cn2)C1(C)C (stereo not drawn)
  -1% | -3%
> Cc1cc(C)cc(NC(=O)c2ccc(CN3CCc4ccccc4C3)cc2)c1
  ? | -19%
> CCC1CN(CCNC(=O)c2ccc3c(c2)OCCO3)Cc2cc(OC)ccc2O1 (stereo not drawn)
  -9% | 0%
> C=C(C)COc1ccc2c(C)c(CC(=O)OC)c(=O)oc2c1C
  / | -28%
> O=C(NCc1ccccc1)c1ccc2c(c1)nc1n2CCCCC1
  -16% | -14%
> C/C(=N\O)C(C)NC(=O)c1ccccc1 (stereo not drawn)
  i | -7%
> CCOc1ccc(CCNC(=O)c2cccc(S(=O)(=O)N3CCCCC3)c2)cc1OCC
  -22% | -28%
> Cc1ccccc1-n1nnnc1SCC(=O)Nc1ccc(N2CCN(C)CC2)cc1
  i[7.34 µM] | 9%[7.34 µM]
> Cc1ccc(C(=O)N/N=C(/CC(=O)c2cccs2)C(F)(F)F)cc1
  -27% | -24%
> O=S(=O)(NC(CO)Cc1ccccc1)c1cc(Cl)ccc1F (stereo not drawn)
  i | -1%
> COc1ccc(CCNC(=O)CSc2cn(Cc3ccccc3)c3ccccc23)cc1OC
  -10% | -25%
> CCOC(=O)C1=C(C)N(CCCC(=O)O)C(=O)NC1c1ccc(OC)cc1 (stereo not drawn)
  -10% | -8%
> Cc1ccc(Cl)cc1N1CCN(C(=O)Cn2cnc3sc(C)c(S(=O)(=O)N4CCC(C)CC4)c3c2=O)CC1
  ? | -23%
> O=C(CSc1nnc(-c2ccncc2)n1-c1ccc(F)cc1)NC(=O)NCc1ccco1
  -20% | -7%
> Cc1c(CCO)c(=O)n(-c2ccccc2)n1S(=O)(=O)c1c(Cl)cc(Cl)cc1Cl
  -13% | -7%
> CCOc1ccccc1NC(=O)CCC(=O)O
  i | -7%
> O=C(O)c1cc2c(cc1NC(=O)c1c(F)cccc1F)OCCCO2
  -8% | -12%
> Cc1noc(C)c1C(=O)Nc1nc(-c2ccc([N+](=O)[O-])cc2)cs1
  i | -10%
> COc1ccccc1Cc1c(-c2cccc(Cl)c2)nc2ccc(Cl)cn12
  -21% | 3%
> CC(C)N(Cc1ccccc1)S(=O)(=O)N(C)C
  -22% | -17%
> CCC(C)(C)n1nnnc1CN1CCSCC1
  -2% | -10%
> O=C(Oc1ccc[nH]c1=O)c1ccccc1
  12% | -11%
> COC(=O)[C@]1(C)N[C@H](c2ccc(-c3cccc(Cl)c3)cc2)[C@@H]2C(=O)N(C)C(=O)[C@@H]21
  ? | -13%
> CCCCc1nn2c(=O)cc(COC(=O)CNC(=O)c3ccccc3C)nc2s1
  -8% | -13%
> O=C(NCCc1ccccc1)c1ccc(-c2ccccc2C(F)(F)F)o1
  -9% | -20%
> COc1ccc(-c2cc(C)no2)cc1S(=O)(=O)NCc1cccs1
  ? | -23%
> C=C(C)C(=O)Nc1nnc(-c2cccs2)s1
  -3% | -1%
> COc1ccc(CCN2C(=O)C3C4CC(C5C(C(N)=O)=NOC45)C3C2=O)cc1OC (stereo not drawn)
  / | 6%
> CC(C)NC(=O)N(C)C[C@H]1Oc2ccc(NS(=O)(=O)c3cccs3)cc2C(=O)N([C@H](C)CO)C[C@@H]1C
  -22% | -11%
> CC1=C(C(=O)NC2CC(C)(C)Cc3c2cnn3-c2ccc(C)cc2)OCCO1 (stereo not drawn)
  i | -1%
> Cc1cccc(NC(=S)NC2CCCCCC2)c1C
  -26% | -8%
> Cn1c(=O)n(C)c2cc([N+](=O)[O-])c(N3CCN(CCO)CC3)cc21
  i | -9%
> COc1ccc(OC)c2sc(N3CCN(C(=O)c4ccc5c(c4)CCCC5)CC3)nc12
  -17% | -7%
> COCCCNC(=O)CSc1nc(-c2cccc(F)c2)[nH]c1-c1ccccc1
  1% | -7%
> CCCCNc1nc2c(c(=O)n(Cc3ccc(Cl)cc3)c(=O)n2C)n1C
  -29% | -11%
> Nc1nc2nc[nH]c2c(=O)[nH]1
  i | -15%
> COc1ccc(OCC(=O)N/N=C/c2ccncc2)cc1
  i | -12%
> Nc1cc(C(=O)OCC(=O)NCc2ccco2)ccc1Cl
  -15%[1.46 µM] | -17%
> COCc1cc(Sc2ccc(Br)cc2)nc(-c2ccccc2)n1
  / | 2%
> CNC(=O)c1sc(=S)n(-c2ccc(OC)cc2)c1N
  -9% | -6%
> N#Cc1ccc(NC(=O)c2cccs2)nc1
  1% | -17%
> Nc1ncnc2c1ncn2[C@@H]1O[C@H](CNCC(O)CO)[C@@H](O)[C@H]1O (stereo partly drawn)
  i | -4%
> COc1ccc(Cl)cc1S(=O)(=O)N1CCN(C(=O)c2ccco2)CC1
  / | -9%
> COc1cc(C(O)c2nc3ccccc3s2)cc(OC)c1OC (stereo not drawn)
  ? | -29%
> COc1ccc(Cn2nnnc2C(c2ccccc2Cl)N2CCN(C)CC2)cc1 (stereo not drawn)
  / | -26%
> CCN(CC)S(=O)(=O)c1cc(NS(=O)(=O)c2cccc(Cl)c2)ccc1C
  -17% | -18%
> Cc1cccc2cc(COC(=O)c3ccco3)c(=O)[nH]c12
  -5% | -1%
> COc1c2ccoc2cc2oc(=O)ccc12
  4% | 7%&-12%
> O=C(O)C1=C[C@@H](C2CCCCC2)C[C@@H](OCc2ccc(CO)cc2)O1
  -12% | -5%
> COc1cccc(CNS(=O)(=O)c2ccc(-c3cc(C(F)(F)F)on3)s2)c1
  -11% | -13%
> COc1ccc(S(=O)(=O)NCC(c2ccc(N(C)C)cc2)N2CCCC2)cc1 (stereo not drawn)
  -4% | -13%
> CC1CN(C(=O)c2cc(S(=O)(=O)N3CCN(c4ccccc4)CC3)ccc2Cl)CC(C)O1 (stereo not drawn)
  -17% | -6%
> C[n+]1ccc(-c2ccncc2)cc1
  -6% | 2%
> O=C1CSC2N1CCNC21CCCCC1 (stereo not drawn)
  / | -13%
> COc1cc(/C(C)=N/NC(=O)C(O)(c2ccccc2)c2ccccc2)ccc1O
  -8% | 6%
> C=CCc1ccc(OCc2ccc(C(=O)Nc3ccc(NC(C)=O)cc3)o2)c(OC)c1
  ? | ?
> Cc1[nH]c2ccccc2c1C(=O)COC(=O)Cn1c(C(F)(F)F)nc2ccccc21
  i | -13%

# (further entries)
# Values run as follows: VACV mCherry inh | VACV Venus inh
> O=C(Nc1nc2ccccc2s1)c1ccc(N2CCCCC2)c([N+](=O)[O-])c1
  -12% | -24%
> O=C(COC(=O)C1=COCCO1)Nc1ccccc1
  i | -1%
> O=C(CCC1N=C2c3ccccc3N=C(SCc3ccc(F)cc3)N2C1=O)NCc1cccs1 (stereo not drawn)
  -14% | -8%
> Cc1nc2c(=O)[nH]c(=S)[nH]c2[nH]c1=O
  i | 4%
> C=C(C)CC1(CC)C(=O)NC(=S)NC1=O
  -14% | -8%
> O=C(COc1ccc2ccccc2c1)N1CCN(CC2CC3C=CC2C3)CC1 (stereo not drawn)
  -14% | -28%
> COc1ccc(NC(=O)CSc2nc(C3CC3)nc3ccccc23)cc1
  ? | ?
> CCOC1=C2CN(S(=O)(=O)c3ccc(C)cc3)[C@H](c3cccs3)C[C@H]2[C@H]2C(=O)N(c3ccccc3)C(=O)[C@H]2C1
  30%[activator] | -7%
> O=C1CCc2cc(NS(=O)(=O)c3ccc(F)cc3)cc3c2N1CC3
  -7% | -14%
> CCOC(=O)C1CCCN(S(=O)(=O)c2ccc(Br)c(OC)c2)C1 (stereo not drawn)
  / | ?
> CC(C)CN1C=C2C(=O)C(C)(OC(=O)C3CCCC3)C(=O)C=C2C=C1c1ccsc1 (stereo not drawn)
  i | -14%
> COCCN1C=C2C(=O)C(C)(OC(=O)CCC(=O)OC)C(=O)C(Br)=C2C=C1c1ccc(OC)cc1 (stereo not drawn)
  -3% | 8%
> COC(=O)c1ccc2c(=O)n(CCCCCC(=O)O)c(=S)[nH]c2c1
  -19% | -9%
> O=C(NC1CCCC1)C(c1ccco1)N1CCC(O)(c2ccc(Cl)cc2)CC1 (stereo not drawn)
  -3% | -12%
> CC(C)NC(=O)c1ccc(COc2ccc(C(C)(C)C)cc2)o1
  -7% | -29%
> CCO[C@H]1OC(C(=O)NCc2nc3ccccc3[nH]2)=C[C@@H](c2cn(C(C)=O)c3ccccc23)[C@@H]1CCCO
  -10% | -28%
> Cc1ccc(S(=O)(=O)N2CCOCC2)cc1NC(=O)Cn1nc(C)c([N+](=O)[O-])c1C
  -19% | -17%
> CS(=O)(=O)NCCCc1ccccc1
  / | -6%
> CCOCCCn1c(C)nc2c(c1=O)c1nc3ccccc3nc1n2-c1ccc2c(c1)OCCO2
  i | -10%
> Cc1ccc(-c2cc(=O)c3cc(F)ccc3[nH]2)cc1
  i | -17%
> COc1ccc(CCNS(=O)(=O)c2ccc(Br)s2)cc1
  i | -4%
> COc1ccc(C(=O)/C=C/c2ccc(OC)c(Cn3nnc4ccccc43)c2)cc1
  13µM* | ?
> CC(C)CC1C(=O)N(Cc2cn(CCC3OCCO3)nn2)CCS(=O)(=O)N1Cc1ccc(-c2ccccc2)cc1 (stereo not drawn)
  i | -21%
> CC1CCCC(C)N1CCNC(=O)Cn1nc(-c2ccccc2)ccc1=O (stereo not drawn)
  -15% | -10%

# Compounds as they come; 0.88% or so of the library scored in one or more.
